Screening results from PubChem BioAssay.
Rango release inh – inhibitors of RanGTP-induced Rango-importin beta complex dissociation; 340,000 compounds, 0.071% hits; AID 540253; Potency, µM (titrated, usually from 46.1 µM), without a hit: at the top dose activity change, negative = inhibition; O95149+P62826; Biochemical FRET Rango-importin beta, RanGTP-induced dissociation; active means falling FRET ratio curve, often poorly fitted, with flat reads before Ran was added; inconclusive means other falling curves, or compound fluorescence or quenching; inactive means flat or rising ratio curve;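 also: potency is read from the fitted curve at half-maximal effect; % of control where 0% means no effect; nearly all actives have a fitted effect of over 45% in size; -100% = wells without RanGTP and RCC1; the record marks most hits as doubtful in a second field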
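FRET read at 45 min, room temperature: inhibitors block the CFP/YFP signal rise when RanGTP (0.6 uM Ran, 2 mM GTP, 0.2 uM RCC1) frees Rango (0.1 uM) from importin beta (0.25 uM). Pre-read after 5 min compound exposure flags interference.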
miR-21 FLuc – raises the signal of a miR-21 reporter. HeLa miR-21 FLuc reporter, luciferase, 48 h. Potency, µM (top dose mostly 38.3 µM), inactives show top-dose reporter change, positive = more light. 340,000 tested, under 10 active. AID 2288; active = well fitted rising curve with a large enough effect; inconclusive = small, poorly fitted or top-dose-only effect; inactive = no such curve, though single readings can be large or run the other way;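 also: % of control where 0% means no effect; miR-21 action dims this reporter so a rising signal means less miR-21 action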
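HeLa cells endogenously expressing miR-21, stably carrying CMV-driven firefly luciferase with a downstream miR-21 binding site, 2000 cells/well. Titrations up to approximately 40 uM, 48 hours; luciferase luminescence read.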
Rango complex inh – inhibitors of Rango-importin beta complex formation; Rango CFP/YFP FRET sensor + importin beta, 45 min; AID 540263; 340,000 compounds, 0.031% hits; Potency, µM (doses to about 92.2 µM), for inactives: at the highest dose inhibition of complex formation; active = rising FRET ratio curve, often small or poorly fitted; inconclusive = mostly compound fluorescence or quenching in the first reads; inactive = flat curves in all reads;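 also: potency is read from the fitted curve at half-maximal effect; 0% = DMSO wells and 100% = buffer wells lacking importin beta; nearly all actives have a fitted effect of over 15% in size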
Target sequence (Q14974 whole entry, looked up): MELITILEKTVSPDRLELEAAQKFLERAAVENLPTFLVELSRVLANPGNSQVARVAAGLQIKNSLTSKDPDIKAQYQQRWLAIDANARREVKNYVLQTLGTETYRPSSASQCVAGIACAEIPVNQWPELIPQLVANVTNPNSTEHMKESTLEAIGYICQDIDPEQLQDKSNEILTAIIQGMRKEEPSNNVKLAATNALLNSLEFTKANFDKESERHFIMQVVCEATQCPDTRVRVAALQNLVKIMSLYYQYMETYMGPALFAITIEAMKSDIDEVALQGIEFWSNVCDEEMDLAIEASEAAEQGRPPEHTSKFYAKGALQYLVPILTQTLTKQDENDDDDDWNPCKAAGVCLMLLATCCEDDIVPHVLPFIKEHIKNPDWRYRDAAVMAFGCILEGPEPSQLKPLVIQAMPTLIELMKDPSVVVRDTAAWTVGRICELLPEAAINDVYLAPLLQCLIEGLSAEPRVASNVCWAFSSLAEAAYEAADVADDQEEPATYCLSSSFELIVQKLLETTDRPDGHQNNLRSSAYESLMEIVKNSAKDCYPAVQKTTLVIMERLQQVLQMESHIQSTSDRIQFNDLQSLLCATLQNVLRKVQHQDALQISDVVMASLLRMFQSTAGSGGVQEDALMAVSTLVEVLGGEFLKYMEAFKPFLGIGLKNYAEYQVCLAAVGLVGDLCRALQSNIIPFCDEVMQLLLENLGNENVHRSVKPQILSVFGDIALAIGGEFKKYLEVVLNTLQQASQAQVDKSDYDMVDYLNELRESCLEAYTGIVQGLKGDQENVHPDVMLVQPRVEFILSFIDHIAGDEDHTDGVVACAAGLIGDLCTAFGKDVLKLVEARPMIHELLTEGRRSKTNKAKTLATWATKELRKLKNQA
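Inhibition scored from the CFP 486 nm/YFP 530 nm FRET ratio 45 min after adding 0.125 microM importin beta to 50 nM Rango biosensor preincubated 5 min with compound (room temperature, PBS with DTT, Tween-20, BSA). No-importin wells as positive control.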
GLA inh pH 4.5 – blocks human alpha-galactosidase A at pH 4.5. P06280. purified enzyme, 4-MU-alpha-Gal fluorescence, pH 4.5. activity change, negative = inhibition, % at 105 µM. 230,000 tested, under 10 active. AID 1467; inconclusive = small, poorly fitted or top-dose-only inhibition, or a rising curve; inactive = flat fitted curve, though single readings scatter; no compound was filed as active;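 also: 0% = full activity with enzyme and -100% = basal without enzyme; dose as in the result columns while the protocol names 77 µM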
Numbers without * were called inactive; ? = inconclusive; . = not tested or not shown; & = joins results of further samples. A portion of the library. The share of hits here may be higher or lower than overall.

SMILES	Rango release inh	miR-21 FLuc	Rango complex inh	GLA inh pH 4.5
Cc1cc(NC(=O)CCC(=O)N(CC(=O)NCC2CCCO2)c2ccc(C)c(C)c2)no1 (stereo not drawn)	-4%	-8%	-3.5%	.
CCOC(=O)C1=C(CNCc2ccc(F)cc2)NC(=O)NC1c1cccc([N+](=O)[O-])c1 (stereo not drawn)	-1%	-3%	-0.8%	-9
O=C(Nc1cccc(S(=O)(=O)N2CCOCC2)c1)c1ccc(Cl)c([N+](=O)[O-])c1	1%	1%	4.5%	-29
O=C1CCN(Cc2ccccc2)CCN1[C@H](CSc1ccccc1)c1ccccc1	14%	-16%	-0.1%	.
COC(=O)c1cccnc1NC(=S)NNC(=O)c1ccccc1	4%	-35%	-1.6%	-7
C[C@@H](C(=O)NCCc1ccccc1F)N1C(=O)N2CCc3c([nH]c4ccccc34)[C@@]2(C)C1=O	15%	12%	-0.6%	.
CCC(C)Nc1nc(Cl)nc(N(C#N)CN2C(=O)c3ccccc3S2(=O)=O)n1 (stereo not drawn)	-15%	-1%	3.3%	-6
Cc1ccccc1NC(=O)/C(C#N)=C/c1ccc[nH]1	20%	-44%	7.3%	.
CC(=O)N1CCc2cc(Br)cc(S(=O)(=O)CCC(=O)Nc3c(C)n(C)n(-c4ccccc4)c3=O)c21	0%	0%	0.3%	10
O=C(Nc1ccc2nc(-c3ccc(Br)o3)[nH]c2c1)c1ccco1	-7%	-20%	-5.2%	2
COc1cccc(NC(=O)N2CCC(C(=O)Nc3ccc(C)cc3C)CC2)c1	-10%	-3%	0.4%	-2
CC(=O)Nc1cccc(C(=O)N/N=C/c2cccc(C)n2)c1	15%	-10%	3.3%	.
CCC(OC(=O)c1ccco1)C(=O)NCc1ccc2c(c1)OCO2 (stereo not drawn)	21%	-6%	-0.2%	.
COc1ccc(-c2noc(N3CCCC(C(=O)Nc4ccc(F)cc4F)C3)n2)cc1 (stereo not drawn)	-2%	-16%	-3.4%	.
COc1ccc(C(=O)N2C(=S)NC(=O)/C2=C\c2ccc(C)cc2)cc1	?	-33%	?	0
O=C(/C=C/Nc1ccc(Br)cn1)c1cccc(OC(F)F)c1	-17%	.	?	.
COc1cc(OC)cc(C(=O)Nn2cc(C(=O)Nc3c(F)cccc3F)c3ccccc3c2=O)c1	1%	2%	-0.2%	0
COc1cccc(N2CCN(C(=O)c3nc4nc(C)cc(C)n4n3)CC2)c1	2%	-1%	-1.5%	4
CCN(C(=O)CSc1cc(C)c2cccc(C)c2n1)C1CCS(=O)(=O)C1 (stereo not drawn)	0%	-2%	1.8%	2
COc1ccc(CN2CCN(S(=O)(=O)c3ccccc3)CC2)c(OC)c1OC	16%	.	-0.9%	.
COCCn1c(=O)[nH]c2cc(C(=O)N3CCN(c4cc(C)ccc4C)CC3)ccc2c1=O	14%	18%	-0.5%	.
O=C(Nc1cccc2ccccc12)NC1CCCc2ccccc21 (stereo not drawn)	-17%	0%	1.8%	0
O=S(=O)(Nc1ccc(Br)cc1)c1cccc(NS(=O)(=O)c2cccs2)c1	-9%	.	-5.3%	.
O=C(Nc1ccc(N2CCN(C(=O)c3ccccc3)CC2)cc1)c1ccc2c(c1)OCCO2	-1%	-18%	-3.6%	.
CCc1ccc(C(=O)C(C)OC(=O)c2cccc(S(=O)(=O)N3CCOCC3)c2)cc1 (stereo not drawn)	14%	.	-3.4%	.

By substructure, those above containing a Cl atom
SMILES	Rango release inh	miR-21 FLuc	Rango complex inh	GLA inh pH 4.5
O=C(Nc1cccc(S(=O)(=O)N2CCOCC2)c1)c1ccc(Cl)c([N+](=O)[O-])c1	1%	1%	4.5%	-29
CCC(C)Nc1nc(Cl)nc(N(C#N)CN2C(=O)c3ccccc3S2(=O)=O)n1 (stereo not drawn)	-15%	-1%	3.3%	-6

The listing continues.
SMILES	Rango release inh	miR-21 FLuc	Rango complex inh	GLA inh pH 4.5
O=C(CN1CCN(c2ccc(F)cc2)CC1)Nc1ccccc1	4%	0%	-2.0%	.
CCc1n[nH]c(=S)n1/N=C/c1ccc(N(CC)CC)cc1	-5%	1%	-1.6%	-10
COC(=O)C1=C(C)NC(=O)NC1c1c(O)ccc2ccccc12 (stereo not drawn)	-20%	-3%	?	.
COc1ccc(C)cc1NC(=O)CNC(C)C(=O)Nc1ccc(C(C)=O)cc1 (stereo not drawn)	14%	2%	-2.9%	.
C[C@H](CO)N1C[C@H](C)[C@@H](CN(C)C(=O)NC2CCCCC2)Oc2c(NC(=O)c3ccncc3)cccc2C1=O	1%	.	-6.2%	.
CCCCOc1cccc(C(=O)Nc2ccc(S(=O)(=O)Nc3cc(C)on3)cc2)c1	1%	-19%	6.7%	.
CC1CN(S(=O)(=O)c2ccc(CN3C(=O)c4cccnc4C3=O)cc2)c2ccccc2O1 (stereo not drawn)	11%	2%	4.5%	.
COC(=O)c1ccccc1N1C(=O)C2C(C1=O)[C@H]1C=C[C@@H]2C1 (stereo partly drawn)	-8%	0%	2.2%	2
Clc1ccc(OCCn2cnc3ccccc32)c(Cl)c1	-6%	-58%	2.1%	-5
COc1cc(C(=O)NCc2ccc(-c3nc4ccccc4s3)cc2)cc(OC)c1OC	-1%	-51%	-0.7%	5
CCOc1ccc(N2CC(C(=O)NCc3nnnn3-c3ccc(C)c(C)c3)CC2=O)cc1 (stereo not drawn)	?	0%&0%	5.4%	.
COc1ccccc1CC(=O)N1CCN(S(=O)(=O)c2cccs2)CC1	-8%	-8%	0.1%	.
CC(=O)c1cccc(NC(=O)C2CCCN2S(=O)(=O)c2cccc3nsnc23)c1 (stereo not drawn)	2%	-20%	2.9%	3
Nc1c(C(=O)NC2CC2)c2nc3ccccc3nc2n1-c1ccc2c(c1)OCO2	-24%	-1%	?	2
COCCn1nnnc1CN(Cc1ccco1)Cc1cc2cc3c(cc2[nH]c1=O)OCO3	?	-5%	?	12
O=C(N/N=C/c1ccco1)C12CC3CC(CC(C3)C1)C2	4%	-12%	4.5%	3
O=C(COC(=O)c1ccc(O)cc1)Nc1ccc(S(=O)(=O)N2CCCC2)cc1	4%	.	-0.4%	.
Nc1nc(Nc2ccccc2F)nc(NC2CCCCC2)c1[N+](=O)[O-]	16%	-5%	2.9%	.
Cc1ccc(-n2c(-c3ccccc3)c[n+]3c2CCc2ccccc2-3)c(C)c1	-5%	?	0.0%	2
Fc1cc(Br)ccc1COc1ccc(-c2nnco2)cc1	-1%	-64%	3.8%	.
CCC(=O)Nc1c(C#N)c2nc3ccccc3nc2n1C1CCCCC1	-7%	-2%	?	-8
O=C(NCCSc1ccccn1)c1ccc(Cl)cc1Cl	-3%	-44%	-0.7%	4
Cc1ccc(NC(=O)c2cc(N3CCOCC3)nc3ccccc23)cc1	-15%	17%	?	2
O=C(Nc1ccc(S(=O)(=O)Nc2nccs2)cc1)c1cc(-c2ccncc2)nc2ccccc12	?	-8%	-13%	3
O=C(NC(=S)NCCc1ccccn1)c1ccccc1	5%	-45%	5.1%	5

More records:
SMILES	Rango release inh	miR-21 FLuc	Rango complex inh	GLA inh pH 4.5
O=C(NCc1cccnc1)c1cc([N+](=O)[O-])ccc1N1CCOCC1	0%	0%	-1.3%	0
CCn1ccnc1C(O)c1cccc(OC)c1 (stereo not drawn)	-8%	-4%	0.7%	4
COc1ccc(-c2ccc(C#N)c(SCC(=O)NCCc3ccccc3)n2)cc1OC	-16%	-11%	-1.7%	15
O=C(Nc1ccccc1OCc1ccccc1)c1ccccc1Br	-26%	-11%	?	.
COc1ccc(C(=O)/C=C2/C(=O)Nc3ccccc32)c(OC)c1	-9%	?	-5.0%	.
CC(C)(C)NC(=O)c1cccc(NC(=O)c2ccc(NC(=O)c3ccco3)cc2)c1	-5%	3%	0.7%	-1
Fc1ccccc1Cc1noc(CN2CCC(OCc3cccnc3)CC2)n1	1%	-41%	-1.7%	12
CCCN1CN=C(NS(=O)(=O)c2ccc(C)cc2)NC1	-3%	5%	4.2%	.
O=C(COC(=O)C1=COCCO1)Nc1cc(Cl)c(Cl)cc1Cl	-17%	.	0.3%	.
CCOC(=O)c1ccc(COC(=O)CCc2nc3ccccc3[nH]c2=O)o1	-15%	-8%	4.5%	-4
CC(C)Cc1nnc(NC(=O)CSc2nc(O)c(Cc3ccccc3)c(=O)[nH]2)s1	11%	0%	-0.3%	-8
COc1ccc(N2CCN(C(=O)CN3C(=O)C4CC=CCC4C3=O)CC2)cc1 (stereo not drawn)	-8%	-5%	-3.2%	4
Cc1cc2c(cc1C)NC1(C(=O)Nc3ccccc31)C1=C(CC(C)(C)CC1=O)N2 (stereo not drawn)	0%	-14%	1.2%	1
CCOc1ccc(CCN2C(=S)N([C@@H](CC(C)C)CN3CCCC3CN3C(=S)NC[C@@H]3Cc3ccc(O)cc3)C[C@@H]2Cc2ccccc2)cc1 (stereo partly drawn)	16%	.	-3.1%	.
Cc1nn(-c2ccc(F)cc2)c(C)c1/C=C/C(=O)N1CCNC(=O)C1	20%	-2%	-3.0%	-4
COc1ccc(C(=O)NC(=S)N(C)C2CCCCC2)cc1	-14%	-41%	6.5%	.
COc1cc(C=NNC(=O)c2ccc(NS(=O)(=O)c3cccs3)cc2)cc(Br)c1O	?	.	?	.
O=C(NCCc1c[nH]c2ccccc12)c1ccc(F)cc1F	14%	-69%	3.7%	.
CC(=O)Nc1ccccc1Sc1ccccc1	12%	-6%	6.3%	0
c1ccc(C2CNCCc3ccccc32)cc1 (stereo not drawn)	5%	-8%	-2.9%	.

21 successive records from above:
SMILES	Rango release inh	miR-21 FLuc	Rango complex inh	GLA inh pH 4.5
O=C(NC(=S)NCCc1ccccn1)c1ccccc1	5%	-45%	5.1%	5
O=C(NCc1cccnc1)c1cc([N+](=O)[O-])ccc1N1CCOCC1	0%	0%	-1.3%	0
CCn1ccnc1C(O)c1cccc(OC)c1 (stereo not drawn)	-8%	-4%	0.7%	4
COc1ccc(-c2ccc(C#N)c(SCC(=O)NCCc3ccccc3)n2)cc1OC	-16%	-11%	-1.7%	15
O=C(Nc1ccccc1OCc1ccccc1)c1ccccc1Br	-26%	-11%	?	.
COc1ccc(C(=O)/C=C2/C(=O)Nc3ccccc32)c(OC)c1	-9%	?	-5.0%	.
CC(C)(C)NC(=O)c1cccc(NC(=O)c2ccc(NC(=O)c3ccco3)cc2)c1	-5%	3%	0.7%	-1
Fc1ccccc1Cc1noc(CN2CCC(OCc3cccnc3)CC2)n1	1%	-41%	-1.7%	12
CCCN1CN=C(NS(=O)(=O)c2ccc(C)cc2)NC1	-3%	5%	4.2%	.
O=C(COC(=O)C1=COCCO1)Nc1cc(Cl)c(Cl)cc1Cl	-17%	.	0.3%	.
CCOC(=O)c1ccc(COC(=O)CCc2nc3ccccc3[nH]c2=O)o1	-15%	-8%	4.5%	-4
CC(C)Cc1nnc(NC(=O)CSc2nc(O)c(Cc3ccccc3)c(=O)[nH]2)s1	11%	0%	-0.3%	-8
COc1ccc(N2CCN(C(=O)CN3C(=O)C4CC=CCC4C3=O)CC2)cc1 (stereo not drawn)	-8%	-5%	-3.2%	4
Cc1cc2c(cc1C)NC1(C(=O)Nc3ccccc31)C1=C(CC(C)(C)CC1=O)N2 (stereo not drawn)	0%	-14%	1.2%	1
CCOc1ccc(CCN2C(=S)N([C@@H](CC(C)C)CN3CCCC3CN3C(=S)NC[C@@H]3Cc3ccc(O)cc3)C[C@@H]2Cc2ccccc2)cc1 (stereo partly drawn)	16%	.	-3.1%	.
Cc1nn(-c2ccc(F)cc2)c(C)c1/C=C/C(=O)N1CCNC(=O)C1	20%	-2%	-3.0%	-4
COc1ccc(C(=O)NC(=S)N(C)C2CCCCC2)cc1	-14%	-41%	6.5%	.
COc1cc(C=NNC(=O)c2ccc(NS(=O)(=O)c3cccs3)cc2)cc(Br)c1O	?	.	?	.
O=C(NCCc1c[nH]c2ccccc12)c1ccc(F)cc1F	14%	-69%	3.7%	.
CC(=O)Nc1ccccc1Sc1ccccc1	12%	-6%	6.3%	0
c1ccc(C2CNCCc3ccccc32)cc1 (stereo not drawn)	5%	-8%	-2.9%	.
